# Insulin prom inh = inhibitors of insulin promoter-driven GFP, primary screen, imaging, TRM-6 cells (human fetal islet line), eGFP reporter, cell count; reporter expression induced with tamoxifen; inhibition, % at 2 µM; hit rate 0.9% among 130,000; AID 1273, 2008;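 active means inhibition above the mean plus 3 SD, with well images judged a real hit on visual review, cut at about 60% in these data, passing the limit was not always enough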
# PKD1 kinase inh = inhibitors of human PKD1 kinase, biochemical, fluorescence polarization; hit rate 0.056% among 200,000; AID 797, 2007; PKD1 kinase fluorescence polarization assay; Serine/threonine-protein kinase D1 (Homo sapiens), Q15139; inhibition, %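 (about 10 µM by stock and volumes)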;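 active means inhibition of 50% or more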;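 further: controls were vehicle for no effect and a reference inhibitor for full effect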
# Target sequence (Q15139 whole entry, looked up): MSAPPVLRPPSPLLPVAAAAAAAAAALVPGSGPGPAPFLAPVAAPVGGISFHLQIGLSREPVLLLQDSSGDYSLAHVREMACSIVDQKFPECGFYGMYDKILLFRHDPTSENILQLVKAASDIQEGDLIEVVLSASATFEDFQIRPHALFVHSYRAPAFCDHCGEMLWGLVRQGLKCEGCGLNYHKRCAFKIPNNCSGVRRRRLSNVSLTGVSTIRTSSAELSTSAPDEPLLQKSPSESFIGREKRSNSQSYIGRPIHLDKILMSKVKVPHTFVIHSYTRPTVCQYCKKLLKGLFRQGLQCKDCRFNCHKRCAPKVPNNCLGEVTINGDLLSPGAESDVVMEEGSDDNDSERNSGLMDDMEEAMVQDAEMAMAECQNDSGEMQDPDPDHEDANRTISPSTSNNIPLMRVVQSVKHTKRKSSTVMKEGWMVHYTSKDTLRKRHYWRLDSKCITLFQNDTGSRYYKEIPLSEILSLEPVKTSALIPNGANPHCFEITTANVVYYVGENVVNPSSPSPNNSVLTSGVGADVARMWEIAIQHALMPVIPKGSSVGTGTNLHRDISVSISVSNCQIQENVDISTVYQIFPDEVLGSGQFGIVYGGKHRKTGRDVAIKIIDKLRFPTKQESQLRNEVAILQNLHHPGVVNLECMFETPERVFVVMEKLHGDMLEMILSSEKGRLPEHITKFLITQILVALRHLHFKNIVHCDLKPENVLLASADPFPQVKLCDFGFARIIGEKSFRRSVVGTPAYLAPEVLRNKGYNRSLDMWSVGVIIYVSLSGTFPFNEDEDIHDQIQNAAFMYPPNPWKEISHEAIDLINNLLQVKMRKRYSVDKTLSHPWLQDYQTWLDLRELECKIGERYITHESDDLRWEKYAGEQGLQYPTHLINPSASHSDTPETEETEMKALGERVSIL
# HSV augment = enhancers of HSV replication in host cells, fold increase, host cell viability. maximum fold increase. hit rate 0.005% among 220,000. HSV replication augmentation in cells;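 active means peak rise of 1.5-fold or more in the series; tested in PC3 cells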;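 further: first round at 10 µM; read as green reporter fluorescence; hits show the peak of a series up to 25 µM; 1 = signal of infected wells without compound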
# GALR2 ag = GALR2 receptor agonists, primary screen, cell-based | GALR2-expressing cells, agonist activation read-out | activation, %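 (tested at 5 µM)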 | hit rate 0.48% among 140,000 | AID 803, 2007;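 active means above mean plus 3 SD of all compounds, about 5% in these data, not always enough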;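 further: 0% = vehicle buffer wells and 100% = reference agonist at full effect; tested in CHO reporter cells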
# RGS16-Gao = modulators of RGS16 binding to Galphao, primary screen, biochemical, human proteins, multiplexed bead flow cytometry; Regulator of G-protein signaling 16 (Homo sapiens) + Guanine nucleotide-binding protein …; bead-based flow cytometry RGS16-Galphao binding, fluorescence; actives lie on both sides; binding response (% of control), % at 10 µM; hit rate 0.38% among 220,000;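 active means below 25% or above 175%, edge rows of some plates excepted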;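 further: Galphao activated by GDP with aluminum fluoride before binding; 100% = wells without compound and 0% = beads without RGS; some results beyond the cut were filed as inactive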
# Insulin prom inh cell count = also measured in Insulin prom inh; calls as there; normalized cell count, %; measured here: cell count, toxicity; reference of the scale not given here;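 cells exposed to compound for 48 h; stained nuclei by imaging scaled within each plate; lower means fewer cells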
# HSV augment primary fold = second read-out of HSV augment, no call of its own (marks repeat the call); fold increase; compound at 10 µM; measured here: primary screen fold increase 10 uM; tested in PC3 cells;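 GFP signal in the first replicate; 1 = infected wells without compound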
# Starred values were filed as active, the others as inactive; i = inactive; x = no result given. Hits appear at their usual frequency; about 1.1% have a hit in one of these screens.
# Below each compound – Insulin prom inh, Insulin prom inh cell count, PKD1 kinase inh, HSV augment, HSV augment primary fold, GALR2 ag, RGS16-Gao
COC(=O)CN(c1ccccc1OC)S(=O)(=O)c1ccccc1
→ 50, 147, 3, i, 1.1, -1.1, 107
CC(C)CNC(=O)c1cccc(NC(=O)C2CCCO2)c1 (stereo unspecified)
→ -438, 98, 1, i, 0.91, -1.8, 110
COc1ccc(Nc2cc(C(=O)NCCCN3CCN(C)CC3)c3ccccc3n2)cc1OC
→ 67, 98, 5, i, 1.1, -2.3, 106
CN(C)CCCOC(=O)c1ccccc1
→ -327, 85, -4, i, 0.68, -1.2, 113
CCCCOC(=O)CSc1nc2c(cc1C#N)C(=O)CC(C)(C)C2
→ -24, 90, -7, i, 0.78, -3.0, 99
COCc1c(C(=O)OCC(=O)N2c3ccccc3CC2C)oc2ccccc12 (stereo unspecified)
→ x, x, -14, i, 0.86, 1.6, 101
CCNC(=O)COC(=O)c1cc(C)n(-c2ccccc2)c1C
→ -33, 94, -6, i, 0.91, x, 112
CCOC(=O)/C=c1\s/c(=C\c2ccc3cc(OC)ccc3c2)c(=O)n1CC(=O)NCc1ccc2c(c1)OCO2
→ -335, 126, -5, i, 1.2, x, 98
CCOC(=O)CN(C(=O)CSc1nnc2c(n1)[nH]c1c(C)cc(C)cc12)c1ccccc1
→ -28, 104, 1, i, 0.84, -2.1, 111
COc1ccc(NC(=O)c2ccco2)cc1NC(=O)c1cccnc1
→ -42, 51, 3, i, 0.92, 0.8, 103
N#Cc1cc2c(=O)n3ccccc3nc2n(CCCn2ccnc2)c1=N
→ 36, 96, -13, i, 0.66, 1.4, 98
COCCN(C(=O)CSc1nnc(C)n1Cc1ccccc1)c1c(N)n(CC(C)C)c(=O)[nH]c1=O
→ x, x, -13, i, 1.1, x, 101
c1ccc(-c2cnc(-c3cccnc3)o2)cc1
→ x, x, 1, i, 1, 0.5, 103
O=C1NCCN(Cc2ccoc2)C1CC(=O)N(CCO)Cc1ccccc1 (stereo unspecified)
→ x, x, 0, i, 1.1, x, 99
O=[N+]([O-])c1cccc(Nc2nc(Cl)nc(Cl)n2)c1
→ x, x, 5, i, 1, x, 107
O=C(NCCCN1CCc2ccccc2C1)Nc1ccc(Cl)cc1
→ -21, 147, 0, i, 1.2, -3.5, 98
O=C1C2CCC(C(O)C2)N1Cc1ccccc1 (stereo unspecified)
→ -94, 177, 6, i, 1, -1.7, 108
CC(C)NC(=O)NC(=O)COc1ccc(Br)cc1Br
→ -5, 68, -9, i, 0.92, -1.0, 108
Cc1ccc(C)c(OCc2nnc(N)s2)c1
→ -12, 73, 3, i, 0.94, -0.1, 98
COc1ccc(Nc2oc(COc3cccc(C)c3)nc2C#N)cc1
→ x, x, -4, i, 0.87, -3.2, 106
COc1cccc(CC(=O)n2nc(N)c3cc4ccc(OC)cc4nc32)c1
→ x, x, -6, x, x, -1.8, 99
CC(C(=O)N(C1CC1)C1(C(=O)Nc2ccccc2)CCCC1)N1C(=O)c2ccccc2C1=O (stereo unspecified)
→ -56, 71, -6, i, 1, -1.2, 103
Cc1cccc(N2CCN(C(=O)COc3cc(=O)n(C)c4ccccc34)CC2)c1C
→ 11, 51, 0, i, 0.74, -1.5, 98
CCN(CC)CCN(Cc1cc2ccc(C)cc2[nH]c1=O)C(=S)Nc1ccccc1C(=O)OC
→ 19, 162, 0, i, 0.87, x, 102
N/C(=N\OC(=O)Cc1ccc(-c2ccccc2)cc1)c1ccncc1
→ x, x, 7, i, 1.1, x, 107
CN(C)C=NCCn1c(N2CCOCC2)nc2c1c(=O)n(C)c(=O)n2C
→ x, x, -12, i, 0.96, -0.9, 104
CCn1c(CSCc2ccc(C)cc2)nnc1SCC(=O)N1CCN(c2ccccc2)CC1
→ 0, 107, -3, i, 1.1, -0.9, 116
CCCn1c(-c2cccnc2Cl)nc2cc(Cl)c(Cl)cc21
→ 39, 28, -5, i, 1.1, 1.4, 100
NC(=O)C1CCN(C(=O)c2ccc(-c3ccccc3)cc2)CC1
→ -18, 32, 7, i, 0.92, -1.6, 107
CC(CN1CCCCC1)OC(=O)CCc1ccccc1 (stereo unspecified)
→ -8, 116, -7, i, 0.93, x, 103
Cc1nnc(NC(=O)CSc2ccc(-c3ccco3)nn2)s1
→ 58, 190, 4, i, 0.95, x, 93
O=C(CSc1nc2c(c(=O)n1-c1ccc(Cl)cc1)SCC2)N1CCOCC1
→ x, x, -5, i, 0.92, -1.3, 103
CCC(C)(C)NC(=O)c1cc(OC)c(OC)cc1[N+](=O)[O-]
→ 28, 154, 11, i, 0.87, -1.5, 91
CC1(C)CC(=O)C=C(Nc2ccc(F)cc2)C1
→ -50, 89, 6, i, 1.1, -1.0, 102
COc1ccc(C2NC(C(=O)O)CS2)cc1COCC(F)(F)F (stereo unspecified)
→ x, x, 3, i, 1.2, -1.3, 101
COc1ccc(SC[C@H](CC(C)C)N2CCN(CCc3ccccc3)CCC2=O)cc1
→ x, x, x, i, 0.99, x, 118
CC(=O)NC1(c2ccccc2)CCN(CC(=O)N2CCC(C)CC2)CC1
→ x, x, 5, i, 0.94, x, 105
O=C(CN1C(=O)/C(=C\c2ccccc2F)SC1=S)Nc1nc2ccccc2s1
→ 0, 81, -3, i, 0.98, -0.3, 105
Cc1ccc(NC(=O)CCNC(=O)c2ccc(Cl)cc2)cc1F
→ -85, 100, -4, i, 0.89, -1.4, 104
CCc1nc(NCc2cccnc2)c2oc3ccccc3c2n1
→ 51, 214, 4, i, 1.2, -1.4, 103
CC12CCC(C(=O)Nc3ccccc3)(C(Br)C1=O)C2(C)C (stereo unspecified)
→ x, x, -6, i, 1.1, -0.1, 105
Cc1ccc(C(=O)Nc2cccc(C(F)(F)F)c2)cc1NC(=O)c1nccnc1N
→ x, x, x, i, 0.58, x, 96
COC(=O)/C(=C1/Oc2ccc(C(C)(C)C)cc2S1)C(F)(F)F
→ x, x, 9, i, 0.92, -0.3, 106
Cc1cc2ccccn2c1C(=O)Nc1ccc(Cl)cc1
→ x, x, 6, i, 1, x, 110
Cc1ccc(S(=O)(=O)NCCN2CCOCC2)cc1
→ -4, 92, 0, i, 0.92, -0.6, 106
O=C(c1cc2ccccc2c(=O)o1)N1CCc2ccccc2C1
→ 19, 122, 6, x, x, -2.6, 99
COCCCNC(=O)c1ccc2c3c(onc13)-c1ccccc1C2=O
→ x, x, x, i, 1.1, x, 31
Cc1ccc(C(=O)O/N=C(\N)c2ccccc2)c(Cl)c1
→ x, x, x, i, 0.98, x, 96
CCOc1ccccc1/C=N/NC(=O)c1cccc(S(=O)(=O)N(CC)CC)c1
→ x, x, -5, i, 0.93, x, 94
CCOc1ccccc1NC(=O)C1CCN(S(=O)(=O)c2ccc(OC)c(OC)c2)CC1
→ x, x, 1, i, 0.88, -1.4, 99
CN(C)/C=N/C(=S)Nc1ccc(Br)cc1F
→ 21, 39, -4, i, 0.9, -1.3, 128
COc1cc(/C=N/N=C(/C(=O)c2ccccc2)c2ccccc2)cc(OC)c1O
→ -32, 124, -6, i, 0.88, -0.3, 100
COc1cc(CC(=O)OCC(=O)Nc2cc([N+](=O)[O-])ccc2F)cc(OC)c1OC
→ x, x, -2, i, 1, -1.0, 89
CC(C)C(=O)NNS(=O)(=O)c1ccccc1[N+](=O)[O-]
→ 3, 101, -10, i, 1, -1.0, 34
COc1cc(C)nc(Oc2ccc(/C=N/O)cc2)n1
→ -16, 74, -4, i, 0.87, -0.7, 103
O=C(O)c1ccc2c(c1)C(=O)N(c1ccc(Cl)cn1)C2=O
→ x, x, 0, i, 0.89, 1.3, 98
CCSC1(SCC)N=C(N)C2(C#N)C(c3ccc(OC)c(OC)c3OC)C12C#N (stereo unspecified)
→ x, x, x, i, 0.73, x, 104
COC(=O)c1[nH]c2ccc(F)cc2c1NS(=O)(=O)c1ccc(F)c(C)c1
→ -7, 118, -15, i, 0.92, -1.8, 104
CCC(C)NC(=O)c1ccc(CS(=O)(=O)c2ccc(OC)cc2)o1 (stereo unspecified)
→ x, x, -10, i, 0.93, -3.1, 104
CSCCCNC(=O)c1ccc(OC2CCN(C(=O)c3cccnc3)CC2)cc1
→ x, x, x, i, 1.1, x, 92

# A different layout for part of the listing above.
smiles	Insulin prom inh	Insulin prom inh cell count	PKD1 kinase inh	HSV augment	HSV augment primary fold	GALR2 ag	RGS16-Gao
COc1cc(C)nc(Oc2ccc(/C=N/O)cc2)n1	-16	74	-4	i	0.87	-0.7	103
O=C(O)c1ccc2c(c1)C(=O)N(c1ccc(Cl)cn1)C2=O	x	x	0	i	0.89	1.3	98
CCSC1(SCC)N=C(N)C2(C#N)C(c3ccc(OC)c(OC)c3OC)C12C#N (stereo unspecified)	x	x	x	i	0.73	x	104
COC(=O)c1[nH]c2ccc(F)cc2c1NS(=O)(=O)c1ccc(F)c(C)c1	-7	118	-15	i	0.92	-1.8	104

# Continued:
# Below each compound – Insulin prom inh, Insulin prom inh cell count, PKD1 kinase inh, HSV augment, HSV augment primary fold, GALR2 ag, RGS16-Gao
Cc1ccc(OCCCCN2CCC(C)CC2)c(Br)c1
→ -27, 73, -12, i, 0.91, -0.2, 100
C/C(=N\NC(=O)c1nc2ccccn2c1C)c1cc2ccccc2o1
→ x, x, -6, i, 0.82, x, 95
O=C(CSc1ccc2nnc(-c3ccncc3)n2n1)NCc1ccco1
→ x, x, -9, i, 1, -1.9, 99
Cc1ccc(NC(=O)COC(=O)C2CC(=O)N(Cc3ccccc3)C2)cc1S(=O)(=O)N(C)C (stereo unspecified)
→ x, x, -6, i, 0.9, x, 102
CS(=O)(=O)N(CCc1ccccc1)CC(=O)NCC1CCCO1 (stereo unspecified)
→ 10, 122, -2, i, 1, -1.6, 101
CN(CCC#N)C(=O)c1ccc(CNS(=O)(=O)c2ccc(F)cc2)cc1
→ x, x, -2, i, 1, -1.0, 98
Cn1c(N)c(C(=O)COC(=O)CCc2ccccc2)c(=O)n(C)c1=O
→ x, x, 0, i, 0.9, x, 101
CCNc1cc(S(=O)(=O)C(F)(F)F)ccc1N
→ 33, 133, 2, x, x, 0.5, 63
Cc1ccc(CSc2nccc(-c3c(C)nc4ccccn34)n2)cc1
→ x, x, x, i, 0.8, x, 100
COc1cc(NC(=O)c2cc([N+](=O)[O-])ccc2Br)ccc1NC(=O)c1ccco1
→ 27, 80, -12, i, 0.92, -2.0, 106
COc1ccc(C2c3c(oc4ccccc4c3=O)C(=O)N2CCCN2CCOCC2)cc1 (stereo unspecified)
→ 28, 117, -3, i, 0.83, -0.9, x
CCOc1cc(/C=C2/C(=O)ON=C2C)ccc1OCc1ccc(F)cc1
→ 10, 124, -10, i, 0.93, -2.2, 76
CN1CCN(C(=O)C2CC(=O)N(c3ccc(F)c(Cl)c3)C2)CC1 (stereo unspecified)
→ x, x, -2, i, 0.86, -2.4, 110
CC(=O)c1ccc(NC(=O)c2ccc(C)c(Br)c2)cc1
→ x, x, 1, i, 0.96, x, 60
CC(=O)c1c(C)[nH]c(C(=O)COC(=O)c2ccc3c(=O)n4c(nc3c2)CCC4)c1C
→ x, x, 5, i, 0.94, -1.0, 103
COc1ccc(CCNS(=O)(=O)c2c(N)n(C)c(=O)n(C)c2=O)cc1OC
→ -67, 125, 0, i, 1.1, x, 94
Cc1ccc(NS(=O)(=O)c2cccc3nsnc23)cc1
→ x, x, x, i, 0.99, x, 101
Cc1cc(NC(=O)CSc2nnc(C)n2-c2ccccc2C)no1
→ -73, 43, -4, i, 1, x, 148
CCOc1ccccc1-c1nc(CN(Cc2cnn(C)c2)C(C)C)c(C)o1
→ -28, 133, -2, i, 1, x, 95
COc1ccccc1C(=O)Nc1ccc2c(c1)nc1n2CCSC1
→ x, x, -10, i, 0.73, -2.1, 102
COCCCNc1nc2nonc2nc1NCCSC
→ x, x, x, i, 0.95, x, 96
Cc1ccc(NC(=O)NC2CCCCC2)c(C)c1
→ 5, 88, -6, i, 0.97, -0.3, 102

# Whole records from above. Screens in order: Insulin prom inh	Insulin prom inh cell count	PKD1 kinase inh	HSV augment	HSV augment primary fold	GALR2 ag	RGS16-Gao
# CC(=O)c1c(C)[nH]c(C(=O)COC(=O)c2ccc3c(=O)n4c(nc3c2)CCC4)c1C across the screens: x	x	5	i	0.94	-1.0	103
# COCCCNc1nc2nonc2nc1NCCSC across the screens: x	x	x	i	0.95	x	96
# Cc1ccc(NC(=O)COC(=O)C2CC(=O)N(Cc3ccccc3)C2)cc1S(=O)(=O)N(C)C (stereo unspecified) across the screens: x	x	-6	i	0.9	x	102
# COc1ccccc1C(=O)Nc1ccc2c(c1)nc1n2CCSC1 across the screens: x	x	-10	i	0.73	-2.1	102

# Compound activity deposited in PubChem BioAssay by several laboratories.
